# Screening results as filed in PubChem BioAssay.
# LANA-nucl inh: LANA-nucleosome interaction inhibition. 0.3% of 51,000 active. z-score (no concentration beside the values). FITC-LANA1-23 / chicken nucleosome fluorescence polarization; stronger effect = lower value;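 active = both repeat wells score below -2 in polarization z-score versus plate sample wells, excluding overly bright wells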;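 note: 100 nL library stock added to about 30 µL; numbers are from one replicate; some results filed as inactive read as strong as hits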
#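 Assay system: purified chicken nucleosomes with FITC-labelled LANA N-terminal peptide (1-23) / Probe or stimulus: 50 nM FITC-LANA1-23 probe / Compound dosing: pin-transferred compound, 100 nL / Times: compound with peptide–nucleosome mix 10–45 min at room temperature / Technique: fluorescence polarization, 480 nm excitation, 535 nm parallel and perpendicular emission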
# Ab BasE inh: inhibitors of Acinetobacter baumannii siderophore enzyme BasE; purified BasE, fluorescence polarization binding displacement; inhibition, % (no concentration beside the values); 0.1% of 84,000 active; AID 485350;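 active = both replicates above 25% with normal brightness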;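 note: 0% = negative plate control signal and 100% = positive plate control signal; stock transfer was 100 nL into about 30 µL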
# Starred values were filed as active, the others as inactive; . = no result given. Not all compounds are listed, so the mix of outcomes need not match the whole.
compound,LANA-nucl inh,Ab BasE inh
CCN(CC)Cc1ccc(C(=O)OC)o1,.,0.1
O=C(Nc1ccncc1)c1ccc2nc[nH]c2c1,-0.019,-1.5
N#CCCn1nc(-c2ccccc2)cc1-c1ccccc1,-0.075,0.7
NC(=O)c1nc2n(c1N)CCCC2,0.07,0.9
CCOC(=O)c1cnn(-c2ccc(Cl)cc2)c1C1CCNCC1,1.9,-8.9
Cc1ccccc1Nc1nc(N)nc(CNCc2ccccc2)n1,.,5.7
NC(N)=NN=C1c2ccccc2-c2ccccc21,.,2.4
Cc1ccc(C)c(NC(=O)C(OC(=O)c2ccco2)c2ccccc2)c1 (configuration not stated),.,-0.4
Cc1cc(-c2ccc(C(C)C)c(S(=O)(=O)N3CCOc4ccccc43)c2)on1,0.34,-0.2
COc1ccc(CC(=O)Nc2ccc(-c3noc(-c4ccc(Cl)cc4)n3)cc2)cc1,0.47,0.9
O=C(CSc1nnc(-c2ccc(Br)cc2)n1-c1ccccc1)N/N=C/c1ccco1,0.3,1.1
Cc1cc2c(cc(C(=O)OC(C(=O)NC3CCCC3)c3ccccc3F)n2C)o1 (configuration not stated),-0.15,-1.6
CC(NC(=O)c1cccs1)C(c1cccs1)N1CCN(c2ccccc2)CC1 (configuration not stated),-0.85,0.9
O=C(CCCN1C(=O)c2ccccc2C1=O)N1CCCCC1,0.067,4.5
N#Cc1ccc(OCC(=O)Nc2cc(C(F)(F)F)ccc2-n2cncn2)cc1,.,0.6
O=C(O)CC(Cn1[nH]nnc1=S)c1ccccc1 (configuration not stated),-0.52,2.9
Cc1ccc(-n2c3c(cc(C(N)=O)c2=O)C(=O)CC(C)(C)C3)cc1,-0.58,2.2
COCC(C)N=C1SCCN1Cc1ccccc1 (configuration not stated),.,0.9
COc1cccc(CNC(=O)C2CCCN(C(=O)c3cnn(-c4ccc(F)cc4)c3-n3cccc3)C2)c1 (configuration not stated),-0.41,-0.9
CC(C)c1ccc(C2Nc3ccccc3S(=O)(=O)N2Cc2ccccc2)cc1 (configuration not stated),.,-2.3
COc1cccc(C2C3=C(CCCC3=O)NC3=C2C(=O)CCC3)c1,0.12,1.1
O=C(O)c1ccccc1Sc1ccccc1S(=O)(=O)NC12CC3CC(CC(C3)C1)C2,.,-0.6
Nc1cnn(C2CCCO2)c(=O)n1 (configuration not stated),0.22,4.0
CCOC(=O)CSc1sc(C(=O)OCC)c2c1S(=O)(=O)N(C)c1ccccc1-2,.,-1.3
CN(C)c1ncnc2c1ncn2C1OC(CO)C(O)C1O (configuration not stated),-0.088,-0.8
Cc1ccc(S(=O)(=O)N2CCOCC2)cc1C(=O)NC(=S)Nn1cnnc1,.,1.1
Brc1ccc(-c2nnc3sc(CN4CCCCC4)cn23)cc1,0.4,-0.2
COc1ccc(Cc2nn3c(C(C)(C)C)nnc3s2)cc1OC,0.54,-1.5
O=C(Nc1nnc(-c2ccccc2)o1)NC1CCCCC1,.,1.3
Cc1nnc(SCc2cc(=O)[nH]c(N3CCN(c4ccccc4)CC3)n2)s1,0.58,1.7

# Entries of single compounds, quoted from the list. Order of screens: LANA-nucl inh | Ab BasE inh
# Nc1cnn(C2CCCO2)c(=O)n1 (configuration not stated) is listed with 0.22 | 4.0
# O=C(O)c1ccccc1Sc1ccccc1S(=O)(=O)NC12CC3CC(CC(C3)C1)C2 is listed with . | -0.6
# Cc1ccc(-n2c3c(cc(C(N)=O)c2=O)C(=O)CC(C)(C)C3)cc1 is listed with -0.58 | 2.2
# COCC(C)N=C1SCCN1Cc1ccccc1 (configuration not stated) is listed with . | 0.9
# CCOC(=O)CSc1sc(C(=O)OCC)c2c1S(=O)(=O)N(C)c1ccccc1-2 is listed with . | -1.3

# More compounds.
compound,LANA-nucl inh,Ab BasE inh
CCn1c(SCC(=O)Nc2ccc3c(c2)OCCCO3)nc2cc(S(N)(=O)=O)ccc21,.,-1.1
COc1cccc(N=c2scc(-c3cccs3)n2CCCN2CCCC2=O)c1,.,0.0
O=C(CNC(=O)c1ccccc1)NCc1ccc(F)cc1,.,1.5
CCc1cc(C#N)c(O)cn1,-1.5,1.2
CSCC(=O)Nc1ccc(-c2ccccc2)cc1,.,3.2
O=C(O)C1C2C=CC3(O2)C1C(=O)N1c2ccccc2COC13 (configuration not stated),-0.89,-2.0
CC(C)Cc1ccc(C(C)C(=O)NC(C)Cc2c[nH]c3ccccc23)cc1 (configuration not stated),.,0.8
CCOC(=O)c1sc(N)c(C#N)c1CSc1ccc2c(c1)OCCO2,.,-0.1
CN1c2ccccc2N(C)C1c1ccc(O)cc1,0.35,5.4
CC1Cc2cc(S(=O)(=O)CCC(=O)Nc3cccnc3)ccc2N1C(=O)C1CC1 (configuration not stated),-0.54,3.3
CCC1CCCCN1C(=O)c1cc2c(C)nn(-c3ccccc3)c2s1 (configuration not stated),-0.31,2.1
Cc1cccc(C(=O)OCC(=O)Nc2ccc3c(c2)OCCO3)c1C,.,-2.1
c1ccc(COn2c3c(c4c5nonc5ccc42)CCCC3)cc1,-0.93,-7.3
Cc1ccc(S(=O)(=O)CCc2nnc(NC(=O)C3CCCN3C(=O)NC3CCCCC3)s2)cc1 (configuration not stated),0.36,0.2
Cc1ccc(CCC(=O)Nc2ccccc2C(=O)O)o1,0.11,0.8
CC(C)(C)c1ccc(Cn2c(=N)n(CC(=O)c3ccco3)c3ccccc32)cc1,2,-8.7
C=CCNCc1ccc2c(c1)c1ccccc1n2CC,0.47,-7.8
NC1=NC(c2ccc(Cl)cc2)C(C(=O)c2ccccc2)N1 (configuration not stated),-1.3,0.7
CCOC(=O)CCc1nc2sc3c(c2c(=O)[nH]1)CCCC3,.,-1.4
O=S(=O)(NCc1ccncc1)c1ccc(Br)cc1,-0.098,2.3
CC1=NN(c2ccccc2)C(=O)/C1=C\c1cn(C)c2ccccc12,.,-0.4
CC(=O)Nc1c2c(nn1-c1ccc(F)cc1)CSC2,-0.056,0.0
COc1ccc(/C=C/C(=O)N(C)C2CCS(=O)(=O)C2)cc1 (configuration not stated),.,0.8
Cc1ccc(SCCC(=O)N/N=C/c2c(CO)cnc(C)c2O)cc1,.,0.5
COCCNC(=O)c1ccc(S(=O)(=O)N2CCCc3ccccc32)cc1,.,0.2
O=C(CSc1nnc(Cc2csc(Nc3cccc(Cl)c3)n2)o1)c1ccc2c(c1)OCCO2,-1.1,-0.6
Cc1onc(-c2ccccc2)c1CNC(=O)Nc1cccc(Cl)c1,1.7,-4.6
Cc1cc(C)c2c(=O)[nH]sc2n1,-0.085,-0.1
Clc1ccc(-c2noc3ncnc(NCc4ccccc4)c23)cc1,.,1.9
CCOC(=O)c1nnn(-c2nn3nnnc3c3ccccc23)c1C,1.3,-1.6
CN(Cc1nc2cc(-c3ccc(Cl)cc3)sc2c(=O)[nH]1)Cc1ccco1,.,0.3
CCN(CC)S(=O)(=O)c1ccc(/C=C/C(=O)N2CC(C)OC(C)C2)cc1 (configuration not stated),.,-4.9
CCn1c(=O)n(CC)c2cc(S(=O)(=O)Nc3ccccc3C)c(C)cc21,0.015,-2.8
Nc1c(C(=O)N2CCCC2)sc2nc(-c3ccccc3)ccc12,0.2,-0.2
CC1CC(=O)Nc2ccccc2N1C(=O)CCC(=O)O (configuration not stated),-0.52,1.4
CCc1ccc(C2=Nn3c(nnc3-c3cccc(S(=O)(=O)N(CC)CC)c3)SC2)cc1,.,-0.5
OCc1cc(Cl)c2c(c1)OCO2,.,0.9
COC(=O)c1ccc(O)c(Sc2cc(C(=O)OC)ccc2O)c1,-0.87,0.8
CCc1ccc(/C=c2\s/c(=C(/C#N)C(=O)C(C)(C)C)n(Cc3ccco3)c2=O)cc1,.,-3.8
COc1ccc(CC(=O)Nc2c3c(nn2-c2ccc(C)cc2)CSC3)cc1,.,1.3
N#C/C(N)=C(\C#N)N=Cc1ccc(C#N)cc1,.,-6.0
CC(C)NC(=S)Nc1ccc2nc3n(c(=O)c2c1)CCCCC3,-0.95,-1.7
CN(Cc1ccccc1)C(=O)Cn1cnc2onc(-c3ccc(Cl)cc3)c2c1=O,-0.47,-0.5
Cc1cc2c(=O)n(Cc3ccco3)c(SCc3nc4ccccc4[nH]3)nc2s1,-0.11,-1.7
O=C(O)CCCNc1nc(-c2ccccc2)cs1,.,1.7
NCCN1CCCCC1,.,4.9
CCOC(=O)c1cnc2c(ccc3ccccc32)c1NCc1ccco1,.,-0.3
O=c1[nH]c(NCCCN2CCOCC2)nnc1-c1ccccc1,-0.18,0.5
CCN(CC)C(=O)c1cc(C)no1,-1.3,-0.1
CCNC(=S)Nc1ccc2cn[nH]c2c1,.,1.4
Clc1ccc(-c2nc(N3CCOCC3)nc3ccccc23)cc1,-0.035,0.5
O=C(Nc1nc2ccccc2s1)NC1CCCCC1,0.32,2.6
c1ccc(COc2ccc(C3SCCS3)cc2)cc1,.,2.9
CN(CCC#N)c1ncnc2c1oc1ccccc12,.,0.8
CN1CCC(N(C)C(=O)NC2CC(=O)N(c3cccc(F)c3)C2)CC1 (configuration not stated),-1.1,0.4
COc1ccc(C(=O)N2CCN(C)CC2)cc1OC,0.3,0.2
O=C(/C=C/c1ccco1)Nc1ccc(S(=O)(=O)N2CCc3ccccc32)cc1,-1,1.6
C=CCNCc1ccccc1F,0.39,0.3
Cc1ccc(C)c(S(=O)(=O)N(CC(N)=O)C(C)c2ccccc2)c1 (configuration not stated),.,-0.1
CCC(=O)N(c1nnc(SCc2cc(=O)n3c(C)csc3n2)s1)C1CC1,.,-0.9

# As entered above:
# `O=C(O)c1ccccc1Sc1ccccc1S(=O)(=O)NC12CC3CC(CC(C3)C1)C2` in Ab BasE inh = -0.6
# `CCN(CC)S(=O)(=O)c1ccc(/C=C/C(=O)N2CC(C)OC(C)C2)cc1` (configuration not stated) in Ab BasE inh = -4.9

# Next compounds
compound,LANA-nucl inh,Ab BasE inh
S=c1[nH]c(-c2ccccc2)cs1,.,-0.1
S=c1[nH]cnc2scc(-c3ccc(Cl)cc3)c12,.,0.1
CCOC(=O)c1cn(CC)c2c(ccc3ccccc32)c1=O,-1,0.2
COC(=O)c1cc2occc2n1Cc1ccc(C)cc1,0.68,1.3
Nc1ccc(Cc2nc3cc4ccccc4cc3[nH]2)cc1,.,-4.7
Cc1cccc(C(=O)NCc2nc3ccccc3[nH]2)c1,-0.32,1.6
Nc1cc(N)nc(SCC(=O)N(Cc2cccs2)c2ccc3c(c2)OCCO3)n1,.,-4.8
N#C/C(=C(/O)CN1C(=O)c2ccccc2C1=O)c1nc2ccccc2[nH]1,0.26,2.5
CCC1(CC)C(=O)C(C)(C)C(=O)OC1c1cccs1 (configuration not stated),-0.62,1.2
COc1ccc2oc(=O)cc(-c3cc4cccc(OC)c4o3)c2c1,-0.24,0.2
O=C(NCC1CCN(CCc2ccc(F)cc2)CC1)Nc1ccc2c(c1)OCO2,0.42,1.6
O/N=C1\COc2ccccc2O1,0.45,4.1
Cc1ccc(S(=O)(=O)N(C)c2ccc(OCC(=O)OCc3nnc(-c4ccccc4)o3)cc2)cc1,.,-0.9
CCCOc1cccc(C(=O)NC(C)c2ccncc2)c1 (configuration not stated),0.21,0.8
NC(=O)c1oc2ccccc2c1NC(=O)COc1ccccc1,-1.1,-7.9
Cc1ccc(S(=O)(=O)C(C)(C)C)s1,-0.21,1.9
CCOc1ccc(-c2nnn(CCC#N)n2)cc1OC,-0.44,-1.1
O=C1N2c3ccccc3CCc3cccc(c32)C1(O)C(F)(F)F (configuration not stated),.,1.8
CO/C(N)=N/C(=S)Nc1ccc(F)cc1F,-1.7,1.3
CCOC(=O)c1sc(S(C)=O)c2c1CCc1conc1-2 (configuration not stated),-0.066,1.3
CCCCn1c(=N)c(C(N)=O)cc2c(=O)n3ccccc3nc21,-0.84,0.3
Cc1cc(=O)c2c(ccc3ccccc32)[nH]1,-0.76,-1.1
COc1cccc(NC(=S)Nc2ccc(N(C)C)cc2)c1,0.3,-2.7
CCCn1c2ccccc2c2nnc(SCCN3CCCCC3)nc21,-0.13,-1.4
O=C(NCc1ccccc1)C1Cc2ccccc2CN1C(=O)c1ccco1 (configuration not stated),.,-1.3
CC1CN(C(=O)NC23CC4CC(CC(C4)C2)C3)CC(C)O1 (configuration not stated),-0.59,4.6
COc1ccc(NC(=O)CSc2ccccc2)cc1,.,6.6
O=C(Cn1nc(C(=O)O)c2ccccc2c1=O)NC1CCCc2ccccc21 (configuration not stated),.,1.6
CCN=C(NCC)SC1CC(=O)N(c2ccccc2)C1=O (configuration not stated),-0.41,2.0
CC(C)(C)n1ncc2c(=O)n(Cc3ccccc3)cnc21,0.038,0.8
C1CN(c2nc(N3CCOCC3)nc(N3CCOCC3)n2)CCN1,0.41,0.3
O=C(O)c1cccc(S(=O)(=O)NCc2ccc3c(c2)OCO3)c1,.,-2.2
CCN1CCN(C(=O)C2c3ccccc3C(=O)N(CC(C)C)C2c2cccs2)CC1 (configuration not stated),0.01,0.9
COC(=O)C1=CN(C2CCCC2)C=C(C(=O)OC)C1c1ccc(Cl)cc1,0.54,-3.1
CCN(CC)c1ccc2c(COC(C)=O)cc(=O)oc2c1,0.66,-0.4
CCN(CC)c1ncccc1C(=O)N1CCCC1,-0.52,0.0
